# Vif A3G: HIV-1 Vif–A3G interaction blockers – biochemical, TR-FRET, GST-Vif 1-94, biotin-A3G peptide, dose response retest, primary screen (AID 1117319); TR-FRET GST-Vif / biotin-A3G peptide binding; higher % means a stronger effect; test concentration not given here; strong numbers were not always called active; one-dose inhibition, %; IC50 in µM for titrated hits; 0.57% of 260,000 active;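 active = above the screen mean plus three standard deviations and confirmed in dose response; inconclusive = results disagree or hit not tested in dose response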;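 also: Vif residues 1-94 fused to GST binding biotinylated APOBEC3G peptide 110-148; 0% = full assay without inhibitor and 100% = GST in place of GST-Vif; retest series ran down from 100 µM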
# UCH37 inh: human UCH37 deubiquitinating enzyme inhibition; Q9Y5K5; purified proteasome/UCH37, Ub-AMC cleavage fluorescence; inhibition, % (test concentration not listed); 0.33% of 330,000 active; AID 588478;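 active = mean of two replicates above 20%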;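 also: 0% = compound-free wells with enzyme and 100% = wells lacking proteasome; stock transfer was 100 nL into about 20 µL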
# Target sequence (Q9Y5K5 whole entry, looked up): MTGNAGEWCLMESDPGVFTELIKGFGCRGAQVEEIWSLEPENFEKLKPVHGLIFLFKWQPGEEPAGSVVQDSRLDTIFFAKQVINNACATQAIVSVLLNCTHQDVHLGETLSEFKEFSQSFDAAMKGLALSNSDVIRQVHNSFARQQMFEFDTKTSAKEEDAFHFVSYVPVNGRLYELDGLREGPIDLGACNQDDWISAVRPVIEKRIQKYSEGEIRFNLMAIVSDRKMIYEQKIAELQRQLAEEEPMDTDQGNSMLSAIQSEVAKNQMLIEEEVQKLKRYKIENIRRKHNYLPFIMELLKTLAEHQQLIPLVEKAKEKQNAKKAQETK
#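 Material: Human UCH37 enzyme supplied as purified proteasome complex | Schedule: 30 min compound-proteasome preincubation then 25 min substrate reaction, room temperature | Detection: AMC fluorescence from Ub-AMC cleavage, excitation 355 nm, emission 460 nm | Benchmarks: Wells without proteasome as full block, compound-free enzyme plus substrate as uninhibited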
# Beta2AR agonist: activates human beta-2 adrenergic receptor causing internalization; response, % (test concentration not listed); 0.43% of 340,000 active; Am2.2-beta2AR cells, FAP receptor internalization, flow cytometry; reference of the scale not given here; P07550; AID 504454;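 active = response above a set limit, near 3 SD of response in nonfluorescent compounds, cut at about 42% in these data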;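 also: stock transfer was 100 nL into about 11 µL; a reference agonist was the positive control; negative values mostly stem from fluorescent compounds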
# Target sequence (P07550 whole entry, looked up): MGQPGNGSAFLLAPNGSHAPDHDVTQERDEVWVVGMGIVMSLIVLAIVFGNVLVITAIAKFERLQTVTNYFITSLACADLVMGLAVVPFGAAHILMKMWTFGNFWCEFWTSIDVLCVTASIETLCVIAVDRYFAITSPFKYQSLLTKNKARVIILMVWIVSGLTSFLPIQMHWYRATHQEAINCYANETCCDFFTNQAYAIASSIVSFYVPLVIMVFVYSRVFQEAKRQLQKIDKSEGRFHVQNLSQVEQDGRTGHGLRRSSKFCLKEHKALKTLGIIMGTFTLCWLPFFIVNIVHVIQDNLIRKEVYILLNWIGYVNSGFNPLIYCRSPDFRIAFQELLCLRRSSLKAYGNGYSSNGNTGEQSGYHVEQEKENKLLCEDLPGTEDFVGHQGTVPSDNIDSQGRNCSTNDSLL
# Bfl-1 A1 inh: inhibitors of the anti-apoptotic protein A1, read as caspase activation. 0.066% of 330,000 active. caspase activation, % (concentration not given with the values). MEF A1-2A-BIM cells, Caspase-Glo 3/7 luminescence, 3 h; percent of clofoctol response, vehicle zero. AID 2462;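 active = over half of replicate activation scores above 10%, or exactly half above 10 with the replicate mean above 10; inconclusive = replicate mean below 10 yet half the replicates above 10; inactive = over half of replicates below 10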;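 also: wells of about 30 µL received 50 nL stock; many hits fall short of the cut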
# HNF4A DNA FP: change in binding of human HNF4 alpha to DNA | AID 1224865 | 0.3% of 360,000 active | HNF4a-FITC DNA binding, fluorescence polarization, 1 h | P41235 | activity change, % at 10 µM; in the data active = activity change above about 30%, passing the limit was not always enough;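 also: controls were the assay level and a saturating level of protein; the project sought stronger binding though the title names inhibitors; some compounds called inactive have numbers as strong as hits; positive values seem to mean higher polarization but the record does not say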
# Ecoli growth: E. coli growth inhibition; OD600 absorbance (no concentration beside the values); 0.21% of 330,000 active; Escherichia coli growth, OD600, 23 h; hits give low values;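 active = OD600 absorbance below the run mean of sample wells minus 3.6 SD, in any replicate, cut at about 0.56 in these data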;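 also: stock transfer was 300 nL into about 60 µL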
# LANA-H2A inh: blocks KSHV LANA binding to histone H2A/H2B; Q9QR71; cell-free LANA-H2A/H2B peptide, fluorescence polarization; inhibition, % (no concentration beside the values); 0.6% of 320,000 active; AID 2629; in the data active = inhibition mostly above about 10%, no sharp cut-off; inactive = mostly below about 6.7%;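 also: stock transfer was 7.5 nL into about 10 µL; 0% = median of vehicle wells and 100% = median of positive control wells; one replicate is shown; the record names a cut of 25% in any replicate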
# Active calls of the source: *; ? = inconclusive; / = no result given.
compound	Beta2AR agonist	Bfl-1 A1 inh	Ecoli growth	HNF4A DNA FP	LANA-H2A inh	Vif A3G	UCH37 inh
CCCC(=O)Nc1c(C)nn(C(=O)CCC)c1C	-7	-2.4	0.73	3.0	4.3	-4%	0.0
O=c1c2ccccc2nc(SCc2nc(-c3ccccc3)no2)n1-c1ccc(F)cc1	9	0.7	0.81	2.8	-0.6	-10%	5.2
Cc1cc(C)n(-c2ccc(C(=O)OCC(=O)N(CC(C)C)C3CCS(=O)(=O)C3)cc2)n1 (stereo not drawn)	-2	-0.7	0.71	4.1	9.7	17%	2.9
CCOc1cc([N+](=O)[O-])cc(/C=C2/NC(=O)N(Cc3ccccc3F)C2=O)c1O	19	0.6	0.72	-7.2	6.1	?	18
CCCNC(=O)N(CCOC)CC1CCCN(C2Cc3ccccc3C2)C1 (stereo not drawn)	-6	0.2	0.7	-1.0	1.6	/	-1.5
CCn1c(CSc2nnc(C)n2-c2ccccc2)nc2cc(S(=O)(=O)N(C)C)ccc21	-4	2.5	0.73	-2.9	2.6	14%	-1.6
Cc1ccccc1NC(=O)Cc1nc(COC(=O)c2nc(Cl)ccc2Cl)cs1	-4	0.9	0.66	-1.2	0.4	30%	4.6
O=C(Nc1ccccn1)c1ccc(Cl)c(S(=O)(=O)N2CCCCCC2)c1	7	-1.4	0.68	-3.5	/	-7%	1.6
CCOc1ccc(C(=O)NCC(=O)OCC(=O)N2CCC(C)CC2)cc1	3	-1.1	0.72	-2.0	2.4	-1%	1.2
Cc1cccc(NC(=O)C2CC(=O)NC(Nc3nc4ccccc4s3)=N2)c1 (stereo not drawn)	/	0.1	0.73	/	-0.5	12%	-0.4
Cc1c(NC(=O)C(C)OC(=O)/C=C/c2ccco2)c(=O)n(-c2ccccc2)n1C (stereo not drawn)	-5	0.5	0.71	-3.2	2.8	24%	2.9
CCOC(=O)c1ccc(Nc2nc(C)cc(=O)[nH]2)cc1	7	-1.3	0.66	8.0	-3.7	4%	-4.0
CCOC(=O)c1c(C2CC2)csc1NC(=O)CSCc1c(C)noc1C	-1	1.4	0.67	2.1	2.8	0%	-11
O=S(=O)(c1ccc(Cl)c(C(F)(F)F)c1)N1CCN(CC(O)COCC2CCCO2)CC1 (stereo not drawn)	-3	0.1	0.71	3.3	0.5	0%	5.4
Cn1ccsc1=NC(=O)c1ccc([N+](=O)[O-])o1	0	-0.1	0.062*	-13	1.7	/	13
C1=CC2c3ccccc3NC(c3ccncc3)C2C1 (stereo not drawn)	0	-1.3	0.68	-1.5	-1.1	?	6.4
C/C(N)=C(/C#N)C(=O)COC(=O)CCC1CCCC1	10	0.1	0.75	1.7	2.9	-8%	1.7
O=S(=O)(Nc1ccc(-c2ccc3nncn3n2)cc1)c1cccc(F)c1	13	0.2	0.72	-2.7	0.7	0%	0.3
CCCCC[C@H]1CN(CCCC)C(=O)[C@@H]1CC(=O)NCc1ccc(OC)cc1	-6	-3.0	/	-0.1	0.7	/	1.6
COc1ccc(CCNC(=O)CCNC(=O)c2ccco2)cc1	0	-1.8	0.69	0.3	3.2	/	6.2
Cc1ccccc1C(=O)NCC(=O)c1ccccc1	2	-2.1	0.63	2.8	-5.4	/	2.5
Cc1cc(NC(=O)CSc2nnc(Nc3ccccc3C)s2)no1	-2	-1.0	0.72	4.1	0.5	1%	5.2
CCN1CCN(C(=O)c2ccc(OC3CCN(CCc4ccccc4)CC3)cc2)[C@@H](C)C1=O	-2	0.2	0.7	-5.3	-4.4	/	1.6
CC(=O)N(C(C)=O)S(=O)(=O)c1ccc(N=NN2CCCCC2)cc1	-2	0.5	0.66	4.8	3.9	/	11
CC(=O)NC(CC(=O)N(C)Cc1cccc(Cl)c1Cl)c1ccccc1 (stereo not drawn)	-1	0.2	0.54*	0.2	3.2	6%	5.7
CCCC(=O)Nc1nc2ccc(S(N)(=O)=O)cc2s1	-9	0.7	0.75	-0.5	-1.5	0%	1.9
CCOC(=O)C1CCCN(C(=O)c2cc3nc(-c4cccc(OC)c4)cc(C(F)(F)F)n3n2)C1 (stereo not drawn)	3	0.7	0.7	3.1	1.6	3%	-19
Cc1nn(-c2ccccc2)nc1-c1nnc(-c2ccc(C(F)(F)F)cc2)o1	-2	-0.8	0.66	2.6	-4.2	2%	-6.1
Cc1cc(C)c(NC(=O)CN2C(=O)CC(C)S(=O)(=O)c3ccccc32)c(C)c1 (stereo not drawn)	4	0.6	0.65	-4.3	-2.9	7%	1.1
O=C(Nc1ccccc1O)c1ccc2c(c1)C(=O)N(c1ccccc1)C2=O	-4	-5.5	0.7	-0.5	2.0	/	5.3

# In the list so far, two have a nitro group on carbon.
compound	Beta2AR agonist	Bfl-1 A1 inh	Ecoli growth	HNF4A DNA FP	LANA-H2A inh	Vif A3G	UCH37 inh
CCOc1cc([N+](=O)[O-])cc(/C=C2/NC(=O)N(Cc3ccccc3F)C2=O)c1O	19	0.6	0.72	-7.2	6.1	?	18
Cn1ccsc1=NC(=O)c1ccc([N+](=O)[O-])o1	0	-0.1	0.062*	-13	1.7	/	13

# Next section:
compound	Beta2AR agonist	Bfl-1 A1 inh	Ecoli growth	HNF4A DNA FP	LANA-H2A inh	Vif A3G	UCH37 inh
CC(=O)N(Cc1cccnc1)Cc1cc2ccccc2[nH]c1=O	-8	0.7	0.74	7.3	-0.8	0%	2.5
NS(=O)(=O)c1ccc(NC=C2C(=O)OC3(CCCCC3)OC2=O)cc1	-6	/	0.64	2.5	3.6	?	12
O=C(O)c1ccc(COc2c(F)c(F)cc(F)c2F)cc1	3	-0.5	0.69	-0.6	4.0	0%	4.2
CCOC(=O)C(CSCc1ccccc1)NC(=O)OC(C)(C)C (stereo not drawn)	4	0.2	0.7	2.2	-3.2	-1%	4.1
Cc1c(OCC(=O)NC(Cc2c[nH]c3ccc(O)cc23)C(=O)O)ccc2c3c(c(=O)oc12)CCC3 (stereo not drawn)	13	0.5	0.73	-7.8	4.7	18%	-1.5
O=C1C=C(NS(=O)(=O)c2ccccc2)C(=O)c2ccccc21	2	/	0.66	4.7	/	-15%	16
C=CCN(c1nc(C)c(Br)c(OC)n1)S(=O)(=O)c1ccc(C)cc1	-3	-0.6	0.69	-2.3	-3.0	-1%	1.4
COc1ccc(N2C(=O)CC(Sc3ncccc3C(=O)O)C2=O)cc1 (stereo not drawn)	-1	0.6	0.68	1.7	-0.2	-1%	0.0
CCN1CCN(C(=O)c2ccc(CNS(=O)(=O)c3cccc(OC)c3)cc2)CC1	-3	0.3	0.68	0.2	0.1	/	3.3
C=C1C(=O)O[C@H]2C[C@]3(C)C([C@@H](OC(=O)/C(C)=C/C)[C@H]12)[C@](C)(O)CC[C@H]3O (stereo partly drawn)	-3	0.2	0.67	-0.8	4.2	-3%	4.5
O=[N+]([O-])c1cccc(/C=N/Nc2ncc(Br)cn2)c1	-7	-1.1	/	5.2	1.7	6%	/
CCn1c(SCC(=O)c2ccc(Cl)cc2)nnc1C(C)C	1	-1.8	0.69	2.8	-2.4	21%	1.2
CC(=O)Nc1ccc(-c2csc(NNC(=O)c3ccc(C)cc3)n2)cc1	-5	1.7	0.67	5.7	-2.0	16%	0.0
CSc1ncccc1C(=O)OCC(=O)NCCc1ccccc1	-4	2.7	0.71	0.2	0.1	/	4.5
CCOC(=O)C1(CCc2ccccc2)CCN(C(=O)[C@@H]2C[C@@H](C)NC(=S)N2)CC1	8	-0.1	0.7	-1.3	-1.0	-7%	2.4
O=C1c2ccccc2C(=O)N1CCCCON1C(=O)c2ccccc2C1=O	-11	-0.2	0.72	-2.2	0.7	-10%	5.9
COc1ccc(OCCSc2nc3ccccc3n2CC(=O)O)cc1	1	-0.1	0.68	2.1	-2.7	-2%	5.9
COc1ccccc1/C=C1\SC(=S)N(CCC(=O)N2CCN(C)CC2)C1=O	2	-0.2	0.69	-0.6	-0.8	6%	6.0
CC1=C(c2ccccc2)[N+](=O)C2(CCCC2)N1[O-]	14	-0.9	0.67	0.2	2.1	-2%	3.5
CCOc1cc(/C=N\Nc2nc(Nc3ccccc3)nc(N3CCOCC3)n2)ccc1OC(=O)c1ccco1	9	-0.1	/	-1.1	-0.7	/	/
CC1=C(C)CC(C(=O)NCCc2ccccc2)C(C(=O)O)C1 (stereo not drawn)	-3	-0.7	0.68	-0.5	-0.4	0%	1.9
Cc1cccc(NC(=S)NNC(=O)CC(C)O)c1C (stereo not drawn)	6	0.6	0.7	0.4	-2.0	-6%	0.0
CCCN(CC(=O)Nc1cc(Cl)ccc1Cl)C(=O)c1ccccn1	-2	0.9	0.72	-0.4	1.5	/	4.1
Cc1ccc(C(=O)OCC(=O)N2CCCc3ccccc32)cc1C	3	/	0.66	-1.3	/	2%	0.6
O=C1N(CN2CCOCC2)c2ccccc2C12OCC(CCl)O2 (stereo not drawn)	-8	1.3	0.64	2.3	-0.9	1%	4.7
O=C(O)CCNS(=O)(=O)c1ccccc1Br	-2	0.7	0.65	3.9	-1.1	/	0.9
O=C(NC1CCCCC1)C1CCCN(S(=O)(=O)c2cnc[nH]2)C1 (stereo not drawn)	4	0.2	0.75	0.1	4.0	-6%	2.6
CCOC(=O)N1CCC(NC(=S)Nc2ccc3nc(N4CCN(C)CC4)cc(C)c3c2)CC1	-1	0.7	0.67	2.9	0.9	-1%	2.9
CCN(CC(=O)NC1CCS(=O)(=O)C1)c1ccc(S(C)(=O)=O)cc1[N+](=O)[O-] (stereo not drawn)	6	1.3	0.67	-1.5	3.8	6%	1.1
O=[N+]([O-])c1ccc(CSc2nnc(-c3cnccn3)o2)cc1	4	-1.8	0.65	-0.4	-1.9	-2%	1.2
Cc1ccc(-c2nc(COC(=O)C3=NN(c4ccccc4)C(=O)CC3)cs2)cc1	0	-2.2	0.68	-0.3	2.0	-2%	1.0
COC(=O)c1sccc1NC(=O)c1cnc2cc(C)nn2c1C	5	0.1	0.7	0.7	-1.1	3%	0.9
Cc1ccc(C(=O)Nc2ccc(C(=O)N/N=C/c3ccc(C)o3)cc2)cc1	4	-0.8	/	-2.6	2.5	/	/
CN(C)CCCN(C(=O)c1ccc(N2C(=O)CCC2=O)cc1)c1nc2c(F)cccc2s1	0	-0.1	0.75	2.9	-1.7	25%	1.5
O=C(COc1coc(CN2CCc3ccccc32)cc1=O)N1CCCCC1	-2	0.9	0.58	-4.2	1.4	3%	0.0
CCc1ccccc1NC(=O)Cn1cccc1C1=NC(c2ccccc2)CO1 (stereo not drawn)	4	-0.2	0.67	-2.1	3.0	/	5.3
O=C(CSc1nc2nn(-c3ccccc3)c(=O)c-2c2n1CCCCC2)NCCc1ccccc1	-22	1.2	0.68	3.4	2.7	-11%	4.2
CCCCOC(=O)C1=C(C)Nc2ncnn2C1c1ccc(OCC)c(OC)c1 (stereo not drawn)	-8	0.1	/	-2.6	2.2	-8%	/
Cc1nc2cccnc2nc1C	-3	-0.4	0.68	0.0	3.9	-8%	-1.5
O=C1CC(c2cccc(Cl)c2)Cc2nc(N3CCOCC3)ncc21 (stereo not drawn)	0	-0.2	0.76	1.3	-0.9	6%	4.2
CN1CCN(C(=O)/C(=C\c2cccs2)NC(=O)c2ccccc2)CC1	-13	-0.5	0.67	-0.3	-0.2	/	7.9
CCn1c(C(=O)NC2CCC(C)CC2)cc2sccc21 (stereo not drawn)	4	0.3	0.7	3.8	1.1	/	3.2

# Bioassay records (PubChem BioAssay)
